PABP polyA inh – PABP-poly(A) binding inhibition; AID 2014; P11940; PABP-poly(A) RNA binding, fluorescence polarization; actives 1% (n = 290,000); inhibition, % at 35 µM;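 active = 50% or more with normal probe brightness, or confirmed in later tests; about a fifth of its hits are not listed in these tables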;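 also: calls also rest on retests at 20 µM and on dose response follow-up; controls were probe without protein and protein plus probe with vehicle; some compounds called inactive have numbers as strong as hits; many hits fall short of the cut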
Target sequence (P11940 whole entry, looked up): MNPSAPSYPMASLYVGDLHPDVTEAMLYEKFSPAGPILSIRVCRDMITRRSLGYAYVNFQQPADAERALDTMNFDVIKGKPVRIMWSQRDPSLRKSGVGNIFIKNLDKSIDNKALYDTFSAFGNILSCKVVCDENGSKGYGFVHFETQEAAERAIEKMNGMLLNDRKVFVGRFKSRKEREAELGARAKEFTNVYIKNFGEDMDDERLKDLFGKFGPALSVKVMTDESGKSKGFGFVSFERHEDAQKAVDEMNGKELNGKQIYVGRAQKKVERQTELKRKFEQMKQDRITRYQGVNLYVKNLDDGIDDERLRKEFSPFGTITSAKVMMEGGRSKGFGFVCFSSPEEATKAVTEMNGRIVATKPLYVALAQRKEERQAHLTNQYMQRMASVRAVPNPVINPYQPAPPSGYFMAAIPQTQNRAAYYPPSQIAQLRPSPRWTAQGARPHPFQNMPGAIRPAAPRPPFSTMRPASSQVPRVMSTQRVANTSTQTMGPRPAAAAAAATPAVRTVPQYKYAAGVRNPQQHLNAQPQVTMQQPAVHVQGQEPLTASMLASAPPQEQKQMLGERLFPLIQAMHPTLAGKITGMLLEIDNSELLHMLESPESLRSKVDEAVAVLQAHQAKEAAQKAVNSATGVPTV
eIF4H FP inh – inhibitors of RNA binding by human eIF4H. Q15056. eIF4H fluorescence polarization binding assay. inhibition, % at 35 µM. actives 0.94% (n = 290,000). AID 2012;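 active = 50% or more with normal probe brightness, or confirmed in later tests; about a fifth of its hits are not listed in these tables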;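 also: calls also rest on retests at 20 µM and on dose response follow-up; 0% = protein and probe with vehicle and 100% = probe without protein; strong numbers were not always called active; many hits fall short of the cut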
Yeast UUG start – yeast start codon fidelity modulation; actives 0.13% (n = 350,000); AID 602363; activity score, % at 18.7 µM; S. cerevisiae UUG-firefly luciferase reporter, luminescence/redox ratio;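 active = replicate mean at a twofold rise or more, about +100% in these data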;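 also: firefly luciferase made from a UUG start codon reports start codon fidelity; reporter light over untreated wells divided by growth signal over untreated wells; some hits fall short of that in this replicate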
CSC inhib – blocks cancer stem cells; inhibition, % at 7.5 µM; cancer stem cell-like cells viability, luminescence; actives 1.1% (n = 300,000);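 active = mean at 75% or more and at least half the replicates too; tested in HMLE shEcad cells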;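 also: 0% = median of negative and 100% = median of positive control wells; the first replicate is given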
Env fusion inh – inhibitors of HIV Env-mediated cell fusion; HeLa-JRFL Env/CEM21 cell fusion, luciferase; actives 1.1% (n = 360,000); inhibition, % at 12.3 µM;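 active = mean replicate inhibition score of at least 50 and every replicate individually at or above 50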;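 also: 0% = plate neutral controls and 100% = maraviroc near 300 nM; one replicate is shown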
Rce1 inhib – inhibitors of yeast Ras-converting enzyme. calls only. yeast membranes, quenched prenylated peptide cleavage fluorescence. Q03530. actives 0.27% (n = 290,000). AID 2563;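 active = fall in fluorescence gain of 50% or more versus controls, with final raw signal at or below 3038400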;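 also: plate controls were neutral control wells for no effect and wells lacking membranes for full effect; tested at 10 µM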
Target sequence (Q03530 whole entry, looked up): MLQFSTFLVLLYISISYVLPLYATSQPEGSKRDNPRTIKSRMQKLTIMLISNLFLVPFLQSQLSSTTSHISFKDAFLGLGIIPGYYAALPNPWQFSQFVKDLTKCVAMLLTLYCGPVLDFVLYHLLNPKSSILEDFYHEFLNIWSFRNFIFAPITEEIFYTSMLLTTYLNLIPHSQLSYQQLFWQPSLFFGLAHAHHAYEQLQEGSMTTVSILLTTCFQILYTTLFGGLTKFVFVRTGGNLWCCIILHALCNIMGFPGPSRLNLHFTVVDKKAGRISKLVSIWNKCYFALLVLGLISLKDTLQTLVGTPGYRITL
MT1-MMP act inh – MT1-MMP (human) activation inhibition | GFP/RFP ratio change, % at 20 µM | actives 0.061% (n = 360,000) | HT1080 RFP-PRO-GFP cells, GFP/RFP ratio fluorescence, overnight; percent of plate control window, DMSO zero | P50281;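 active = GFP/RFP ratio change of at least 30% with cell ATP level not reduced by more than half and red fluorescence within 50% of control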; also: strong numbers were not always called active
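Compound: 20 µM single dose, 1% DMSO / System: HT1080 RFP-PRO-GFP cells / Controls: DMSO and RFP-L50D-GFP cell wells / Read-out basis: GFP/RFP fluorescence ratio / Schedule: overnight compound exposure at 37 °C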
eIF4H FP inh retest – second read-out of eIF4H FP inh, no call of its own (marks repeat the call); inhibition, %; compound at 20 µM; confirmation average;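 mean of two retest wells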
PABP polyA inh retest – further read-out of PABP polyA inh, marked with its call; inhibition, %; compound at 20 µM; confirmation repeats;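 mean of two retest wells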
MT1-MMP act inh RFP – recorded beside MT1-MMP act inh, whose call it bears; RFP signal change, %; measured here: RFP expression control read;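 0 = vehicle wells; hits needed this value within 50% of zero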
* marks the source's active call; other numbers are inactive results; i = inactive; x = no result given; + = active, no number.

SMILES	PABP polyA inh	eIF4H FP inh	Yeast UUG start	CSC inhib	Env fusion inh	Rce1 inhib	MT1-MMP act inh	MT1-MMP act inh RFP	others
COc1cc(CN2CC(=O)N(c3ccccc3Cl)C2=S)cc(OC)c1OC	7	6	-4	-10	14	i	-7	-13
COc1cccc(CNCC(=O)N2C(C)CCCC2C)c1 (stereo unspecified)	34	10	-4	6	-5	i	9	3
COc1ccc(-n2c(C)c(C(C)=O)c(C(C)=O)c2C)cc1OC	-3	17	-2	-23	x	i	4	5
COc1ccc(OC)c(NC(=O)Nc2nnc([C@H]3C[C@H](O)[C@@H](CO)O3)s2)c1	x	x	-30	x	5	x	-3	4
O=C(N[C@H]1C/C=C\C[C@@H](CC(=O)N(CCO)Cc2ccccc2)C(=O)NC[C@H](c2ccccc2)OC1=O)OCC1c2ccccc2-c2ccccc21	x	x	-27	104*	-6	x	-8	-9
CC(=O)Nc1cccc(C(=O)N(CCc2ccccc2)Cc2ccccc2)c1	10	2	-4	7	x	i	-3	-2
Cc1ccc(C)c(S(=O)(=O)N2CCN(c3ncnc4sccc34)CC2)c1	x	x	-18	101*	x	x	-10	-30
COc1ccc(S(=O)(=O)N2CCC(C(=O)Nc3ccccc3C)CC2)c2cccnc12	-6	4	x	-7	0	i	1	-5
Cn1c(CNC(=O)CNC(=O)c2ccccc2F)cc(=O)n(C)c1=O	1	-11	-7	-7	-1	i	1	4
O=S(=O)(NC1CC1)c1cccc(S(=O)(=O)N2CCCC2)c1	-2	4	2	-8	x	i	-1	11
CC(C)(C)C(=O)N1CCN(C(=O)c2ccco2)CC1	7	-3	-12	-7	11	x	2	3
COc1ccccc1/C=C/C(=O)OCC(=O)NC1CCS(=O)(=O)C1 (stereo unspecified)	x	x	x	1	6	x	1	3
CCn1cc(C(=O)OCc2cccc(Br)c2)c(=O)c2ccc(C)nc21	-5	-4	-11	9	-26	i	5	-1
c1ccc2cc(C3CCCCC3)ncc2c1	x	x	-15	3	16	x	2	-1
COc1ccc(NC(=O)[C@@H](NC(N)=O)C(C)C)cc1Cl	25	-13	x	-3	7	i	4	3
Cn1c(CCNC(=O)c2ccccc2)nc2cc(NC(=O)C3CCCCC3)ccc21	-14	-5	-4	-8	21	i	17	2
CCOC(=O)N1CCN(S(=O)(=O)c2cc(Br)cc3c2N(C(=O)C2CC2)CC3)CC1	8	-10	1	6	40	i	0	3
O=[N+]([O-])c1ccc(Cl)c(CN2CCC(O)CC2)c1	2	2	x	-4	8	i	1	1
NNC(=O)Cn1c(-c2ccccc2)cc2ccccc21	4	-4	-8	9	-13	i	4	6
CCCn1c(NC(=O)c2ccco2)nc2ccccc21	9	1	13	1	x	i	10	3

Some of these compounds in order of SMILES length, rising:
SMILES	PABP polyA inh	eIF4H FP inh	Yeast UUG start	CSC inhib	Env fusion inh	Rce1 inhib	MT1-MMP act inh	MT1-MMP act inh RFP	others
CCCn1c(NC(=O)c2ccco2)nc2ccccc21	9	1	13	1	x	i	10	3
O=[N+]([O-])c1ccc(Cl)c(CN2CCC(O)CC2)c1	2	2	x	-4	8	i	1	1
COc1ccccc1/C=C/C(=O)OCC(=O)NC1CCS(=O)(=O)C1 (stereo unspecified)	x	x	x	1	6	x	1	3

The listing continues:
SMILES	PABP polyA inh	eIF4H FP inh	Yeast UUG start	CSC inhib	Env fusion inh	Rce1 inhib	MT1-MMP act inh	MT1-MMP act inh RFP	others
CC(=O)NC(c1cccc(F)c1)c1nc(-c2csc3ccccc23)cs1 (stereo unspecified)	x	x	-5	x	29	x	-3	-6
CN(C)c1nc(N(C)C)nc(N(C#N)CCOc2ccccc2)n1	-13	14	-11	-4	x	i	-5	-5
Cc1cccc(C)c1N(CC(O)Cn1c2ccccc2c2ccccc21)S(C)(=O)=O (stereo unspecified)	-11	-3	-10	11	84*	i	-13	-17
COC(=O)c1ccc(C(=O)OC)c(NC(=O)COC(=O)c2ccc(OC)c(OC)c2OC)c1	-2	2	11	-10	5	i	1	-1
CN(C)S(=O)(=O)c1ccc(C(=O)Nc2nc(-c3ccccc3)c(C(=O)c3ccccc3)s2)cc1	8	-6	-4	-13	-13	i	2	-3
COc1cc(NC(=O)Cn2cnc(S(=O)(=O)N3CCCCC3)c2)cc(OC)c1OC	-3	-10	-6	-8	3	i	3	3
Cc1ccc(C(=O)NCCNC(=O)c2ccc(F)cc2)cn1	-6	-3	-15	x	7	i	0	2
Cc1ccc(-c2nc(CS(=O)CC(=O)NC3CC3)c(C)o2)cc1 (stereo unspecified)	11	-4	-10	-13	5	i	-2	0
O=C(NCCc1nc(-c2ccccc2Cl)no1)c1ccccc1	x	x	-2	-1	-15	i	4	-3
CSCCC(C(=O)Nc1c(C)cccc1C)N(Cc1ccccc1)Cc1ccccc1 (stereo unspecified)	x	x	-12	x	34	x	-22	-24
Cc1ccc(N(C(C)C(=O)Nc2cccc(N(C)S(C)(=O)=O)c2)S(C)(=O)=O)cc1 (stereo unspecified)	-3	0	x	-5	-6	i	2	5
Cc1cc(SCC(=O)Nc2ccc(O)cc2)n2nc(C)c(-c3ccccc3)c2n1	7	8	-52	27	25	i	-8	-5
CCOC(=O)c1[nH]c(C)c(C(=O)OCC(=O)N(CC)C2CCS(=O)(=O)C2)c1C (stereo unspecified)	2	4	-4	-1	x	i	-5	-1
CC(=O)CC1OC(=O)C(Br)=C1NCc1ccccc1 (stereo unspecified)	11	-5	-7	41	x	i	8	6
COc1ccccc1-c1nnc(SCC(=O)OC(C)C)o1	-6	-3	-13	-8	4	i	10	3
CCN(CCCNC(=O)C1CCCN(S(=O)(=O)CC)C1)c1cccc(C)c1 (stereo unspecified)	12	6	3	-14	x	i	-1	-2
CC(C)OC(=O)c1cccc(NC(=O)c2ccccc2)c1	13	-1	x	6	-132	i	1	2
COc1ccccc1-c1ccc(SCC(=O)N2CCOCC2)nn1	-7	1	-14	-1	-4	i	2	1
CCOc1ccc(NC(=O)CSc2nccn2Cc2ccco2)cc1	14	6	7	-7	-65	i	-2	0
Cc1ccc(S(C)(=O)=O)cc1C(=O)OCC(=O)N1CCCC1=O	x	x	-19	x	5	x	1	-2
CCc1nnc(NC(=O)CCC(=O)NC2CCCCCCC2)s1	x	x	-9	20	-13	i	4	7
CN(C)c1cccc2c(S(=O)(=O)Nc3ccccn3)cccc12	2	7	-22	1	-4	i	-1	3
O=C(N/N=C/c1ccc(F)cc1)c1cc(-c2ccco2)nc2ccccc12	51*	90*	-13	27	-136	i	-4	-14	eIF4H FP inh retest=90*;PABP polyA inh retest=90*
COc1cccc(-n2nnc3c(=O)n(CC(=O)N4CCC(Cc5ccccc5)CC4)cnc32)c1	-18	-1	-17	0	17	i	6	-10
Cc1ccc(S(=O)(=O)N2CCCCC2C(=O)NCc2ccco2)cc1 (stereo unspecified)	-4	6	-15	-10	12	i	4	5
Cc1ccc(S(=O)(=O)NCCc2cc3ccc(C)cc3[nH]c2=O)cc1	6	7	-15	-9	2	i	-2	-3
O=C(O)CC1(CC(=O)Nc2ccc3ccccc3n2)CCCCC1	1	-1	-8	0	-6	i	-4	4
CCOC(=O)CN1C(=O)C(Sc2n[nH]c(-c3ccc(O)cc3)n2)CCc2ccccc21 (stereo unspecified)	-6	-5	-1	24	x	i	-7	-9
Cc1ccc(CS(=O)(=O)CC(C)(O)c2ccc(Cl)cc2)cc1 (stereo unspecified)	-3	4	-17	-13	14	i	1	0
O=C(O)C1Cc2c([nH]c3ccccc23)C(c2ccc3c(c2)OCO3)N1 (stereo unspecified)	1	3	-15	17	x	i	-38	-1

Reprinted from the part before: three compounds; new compounds follow.
SMILES	PABP polyA inh	eIF4H FP inh	Yeast UUG start	CSC inhib	Env fusion inh	Rce1 inhib	MT1-MMP act inh	MT1-MMP act inh RFP	others
CCOC(=O)CN1C(=O)C(Sc2n[nH]c(-c3ccc(O)cc3)n2)CCc2ccccc21 (stereo unspecified)	-6	-5	-1	24	x	i	-7	-9
Cc1ccc(CS(=O)(=O)CC(C)(O)c2ccc(Cl)cc2)cc1 (stereo unspecified)	-3	4	-17	-13	14	i	1	0
O=C(O)C1Cc2c([nH]c3ccccc23)C(c2ccc3c(c2)OCO3)N1 (stereo unspecified)	1	3	-15	17	x	i	-38	-1
CCOC1OC(=O)C(Cl)=C1Nc1cc(C)ccc1C (stereo unspecified)	3	-4	x	-5	-11	i	-4	0
COc1ccc(Br)cc1CN(C)CC(=O)Nc1cccc(S(N)(=O)=O)c1	2	4	x	15	-6	i	-3	0
COC(=O)c1ccccc1NC(=O)C(=O)NCC1CCCO1 (stereo unspecified)	1	-2	x	8	x	i	2	0
O=C1C(=O)N(CCO)C(c2ccc(Br)cc2)/C1=C(\O)c1ccccc1 (stereo unspecified)	4	-10	-18	-7	-6	i	1	4
Cc1cccc(-c2nnc(SCc3ccccc3)o2)c1	-5	-9	-19	-9	-85	i	-2	-2
CCOC(=O)N1CCN(C(=O)CN(c2cccc(C)c2)S(=O)(=O)c2ccccc2)CC1	8	2	22	-8	-45	i	1	1
O=C(Nc1cccc(Br)c1)c1cccc(OC(=S)N2CCOCC2)c1	7	4	4	0	x	x	0	-17
COC(=O)[C@@H](Cc1c[nH]c2ccccc12)NC(=O)CNC(=O)c1ccccc1OC	0	-7	-1	-6	1	i	-1	0
O=C(O)c1cc(C(F)(F)F)nc2ccccc12	16	-6	-17	-9	-9	i	2	2
Cc1ccc(C)c(OCCn2c(=O)c3c(ncn3C3CCCC3)n(Cc3ccccc3)c2=O)c1	10	-13	x	15	23	i	-13	-14

4 records picked at random from the list so far, as already listed:
SMILES	PABP polyA inh	eIF4H FP inh	Yeast UUG start	CSC inhib	Env fusion inh	Rce1 inhib	MT1-MMP act inh	MT1-MMP act inh RFP	others
CCOC1OC(=O)C(Cl)=C1Nc1cc(C)ccc1C (stereo unspecified)	3	-4	x	-5	-11	i	-4	0
COc1ccc(Br)cc1CN(C)CC(=O)Nc1cccc(S(N)(=O)=O)c1	2	4	x	15	-6	i	-3	0
O=C(Nc1cccc(Br)c1)c1cccc(OC(=S)N2CCOCC2)c1	7	4	4	0	x	x	0	-17
O=C(O)c1cc(C(F)(F)F)nc2ccccc12	16	-6	-17	-9	-9	i	2	2

Next entries.
SMILES	PABP polyA inh	eIF4H FP inh	Yeast UUG start	CSC inhib	Env fusion inh	Rce1 inhib	MT1-MMP act inh	MT1-MMP act inh RFP	others
CCC(C)(C)c1ccc(OCCCC[n+]2cccc(C)c2)c(C(C)(C)CC)c1	-1	-13	x	x	129*	+	-50	-42
CCOc1ccc(-c2nnc3ccc(SCC(=O)Nc4cc(C)on4)nn23)cc1	-3	-9	x	-12	-5	i	5	10
COc1cc(N)c(Cl)cc1C(=O)OCC(=O)N1c2ccccc2NC(=O)C1(C)C	x	x	2	x	16	x	-6	-1
Cc1ccccc1OCCn1cc(/C=C(\C#N)C(=O)NCc2ccco2)c2ccccc21	-6	-12	x	4	13	i	-4	-5
Cc1cccc(C)c1NC(=O)c1cccc(COc2cc(Cl)ccc2Cl)c1	0	-7	-2	-3	-19	i	-1	-5
Cc1ccc(NC(=O)CCC(=O)OC(C(=O)c2ccc(C)c(C)c2)c2ccccc2)c(C)c1 (stereo unspecified)	-7	-3	-19	-3	0	i	-1	2

Screening results from PubChem BioAssay.
